rRNA inh HTS = reduced GFP signal of wild-type E. coli, primary screen, bacterial rRNA inhibitor project, GFP/RFP fluorescence, OD600, single point; E. coli WT GFP vs humanized-ribosome RFP mutants, 24 h; stronger effect = lower value; DMSO median 0, no signal -100; GFP signal change (wild-type ribosome), % (no concentration beside the values); 1.6% of 350,000 active;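 active means significant combined selectivity score with lowered wild-type GFP, culture density cut under 30%, mutant RFP and density less affected; inactive means any of these conditions unmet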; further: one replicate is shown; some compounds called inactive have numbers as strong as hits
AF4-AF9 inh = inhibitors of AF4 peptide binding to AF9, primary screen, biochemical, AlphaScreen, biotin-AF4 peptide, FLAG-AF9, single point; Protein AF-9 (Homo sapiens), P42568; inhibition, % at 10 µM; 0.47% of 350,000 active;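 active means every replicate reaching a set inhibition limit, whatever the replicate mean, cut at about 25% in these data; inconclusive means mean inhibition reaches that limit but some replicates miss it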;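 further: 0% = plate neutral control median and 100% = total signal loss; the record names both 10 and 1 µM as test concentration; the first replicate is given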
Target sequence (P42568 whole entry, looked up): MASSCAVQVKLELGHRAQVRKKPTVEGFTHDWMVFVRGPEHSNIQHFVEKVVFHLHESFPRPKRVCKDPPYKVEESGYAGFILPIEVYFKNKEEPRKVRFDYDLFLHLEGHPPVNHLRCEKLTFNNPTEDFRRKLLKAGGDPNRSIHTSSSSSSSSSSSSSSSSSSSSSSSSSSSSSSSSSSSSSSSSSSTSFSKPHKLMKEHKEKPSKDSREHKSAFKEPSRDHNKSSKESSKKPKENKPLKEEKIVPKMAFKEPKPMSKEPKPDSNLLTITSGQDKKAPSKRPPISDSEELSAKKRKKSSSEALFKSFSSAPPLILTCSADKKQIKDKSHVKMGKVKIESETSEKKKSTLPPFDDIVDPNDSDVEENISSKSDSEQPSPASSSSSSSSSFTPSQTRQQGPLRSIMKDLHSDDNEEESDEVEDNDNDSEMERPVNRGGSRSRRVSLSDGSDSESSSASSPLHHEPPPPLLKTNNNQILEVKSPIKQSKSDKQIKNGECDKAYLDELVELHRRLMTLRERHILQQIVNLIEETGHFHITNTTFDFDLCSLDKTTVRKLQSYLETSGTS
Calb FLC = C. albicans growth inhibition with fluconazole, primary screen, CaCi-2 strain, Alamar Blue fluorescence; C. albicans CaCi-2 (fluconazole-resistant clinical isolate) + fluconazole, 48 h; growth inhibition, % (concentration not given with the values); 0.57% of 300,000 active; AID 1979, 2009;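 active means most replicates above 75%; inconclusive means exactly half above 75%; inactive means most below 75%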;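 further: all wells also contain fluconazole at 8 µg/ml as a sub-toxic cotreatment; 0% = median of DMSO wells and 100% = median of geldanamycin control wells; wells of about 8 µL received 7.5 nL stock; the first replicate is given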
RanGTP-Impb inh = inhibitors of RanGTP-importin-beta interaction, primary screen, biochemical, FRET, CFP-Ran, YFP-importin-beta, homogeneous | Ran GTPase (GTP-bound) - importin-beta complex | cell-free CFP-Ran/YFP-importin-beta FRET ratio | AID 2216, 2009 | 1.1% of 300,000 active | inhibition, % (no concentration beside the values);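 active means most replicates above 15%; inconclusive means exactly half above 15%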;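 further: 0% = DMSO wells and 100% = Ran loaded with GDP instead of GTP; wells of about 40 µL received 100 nL stock; the first replicate is given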
Beta cell apopt = inhibitors of cytokine-induced beta cell apoptosis, primary screen, luminescence; INS-1E cytokine-induced death, ATP luminescence, 48 h; percent of positive-control rescue, neutral wells zero; AID 435005, 2010; protection from apoptosis, % (test concentration not listed); 0.8% of 300,000 active;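 active means all replicates at 75% or more, or half of them and the mean; inconclusive means half reach 75% but not the mean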;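 further: 0% = cytokine-treated negative control wells and 100% = positive control rescue; higher means more ATP so stronger rescue from cytokine killing; wells of about 40 µL received 100 nL stock; the first replicate is given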
FGF22 binding = binders of human FGF22 protein, primary screen, FGF22 synaptogenesis inhibitor project, biophysical, thermal shift, single point. 1.5% of 340,000 active. calls only at 9.99 µM. Fibroblast growth factor 22 (Homo sapiens), Q9HCT0. recombinant FGF22 thermal shift, SYPRO orange fluorescence; percent of sucrose octasulfate shift, DMSO zero;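 active means melting point raised past a set limit in the mean and every replicate; inconclusive means no clear call; three in four hits are not shown here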
Target sequence (Q9HCT0 whole entry, looked up): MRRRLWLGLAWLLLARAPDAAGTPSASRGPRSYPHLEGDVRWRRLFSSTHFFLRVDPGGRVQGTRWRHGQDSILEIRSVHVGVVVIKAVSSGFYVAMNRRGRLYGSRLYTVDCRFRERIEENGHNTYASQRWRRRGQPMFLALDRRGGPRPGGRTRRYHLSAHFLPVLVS
ALR inh = inhibitors of human ALR sulfhydryl oxidase, primary screen, biochemical, H2O2 detection, HRP-luminol luminescence, single point; FAD-linked sulfhydryl oxidase ALR (Homo sapiens), P55789; purified ALR, DTT oxidation; inhibition, % (concentration not given with the values); 3.8% of 290,000 active;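 active means mean and each replicate at 75% or more; inconclusive means only one of the two met; inactive means neither met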;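 further: stock transfer was 7.5 nL into about 7.5 µL; 0% = neutral wells and 100% = wells with inactivated enzyme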
Target sequence (P55789 whole entry, looked up): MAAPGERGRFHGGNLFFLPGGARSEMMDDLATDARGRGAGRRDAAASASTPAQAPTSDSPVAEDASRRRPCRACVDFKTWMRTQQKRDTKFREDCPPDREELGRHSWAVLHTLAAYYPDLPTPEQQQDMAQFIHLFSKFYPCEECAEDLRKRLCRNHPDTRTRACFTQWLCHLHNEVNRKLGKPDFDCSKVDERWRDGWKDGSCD
T cruzi inh = inhibitors of intracellular T. cruzi growth, primary screen, luminescence, NIH3T3 host cells | AID 1885, 2009 | 1.4% of 300,000 active | T. cruzi beta-gal in NIH3T3, 90 h | inhibition, % (concentration not given with the values);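 active means mean inhibition across valid replicates above about 55%, limit read from the data; inconclusive means mean below that limit but half or more replicates reach it; inactive means mean below it, under half of replicates reach it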;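 further: signal also drops with host cell toxicity which is not excluded here; 0% = plate median of DMSO wells and 100% = zero luminescence signal; higher percent means less beta-gal luminescence so fewer parasites; stock transfer was 50 nL into about 50 µL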
rRNA inh HTS OD600 = recorded beside rRNA inh HTS, whose call it bears; OD600 change, %; measured here: OD600 growth;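 optical density of the mix in the first replicate; 0 = DMSO median and -100 = no signal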
rRNA inh HTS RFP = further read-out of rRNA inh HTS, marked with its call; RFP signal change, %; measured here: RFP humanized mutant strains;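 first replicate; 0 = DMSO median and -100 = no signal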
Active calls of the source: *; i = inactive; ? = inconclusive; · = no result given; + = active, no number.

SMILES	rRNA inh HTS	rRNA inh HTS OD600	rRNA inh HTS RFP	AF4-AF9 inh	Calb FLC	RanGTP-Impb inh	Beta cell apopt	FGF22 binding	ALR inh	T cruzi inh
CC(C)CC(=O)Nc1ccc(-c2nc3ccccc3c(=O)o2)cc1	·	·	·	·	-1	5.0	-10	·	3	3
CCCN(CCC)CC(C)(C)NS(=O)(=O)c1ccc(Cl)cc1	2	1	-4.0	-5.1	-1	3.0	1	+	5	-1
Cc1ccccc1OCC(=O)Nc1cccc(N(C)S(C)(=O)=O)c1	-19	-1	-8.2	3.5	-5	0.4	3	i	-7	-7
Brc1cc2c(cc1CN1CCc3ccccc3C1)OCO2	-24	-16	-11	2.1	-23	-1.5	·	i	-2	43
O=C(CNC(=O)C1CCCCC1)OC(C(=O)c1ccccc1)c1ccccc1 (stereo not given)	15	7	-2.3	-3.7	·	·	1	i	-5	·
Cc1c(C)n(C)c2ccc([N+](=O)[O-])cc12	·	·	·	·	3	1.3	-9	·	-28	-3
CCOC(=O)Cc1csc(NC(=O)CSc2nnnn2-c2ccc(F)cc2)n1	-17	-15	-3.2	-0.3	-1	2.6	1	i	-2	-8
N#CCCN(C(=O)COC(=O)c1ccc2ccccc2n1)c1ccccc1	-3	-5	-1.1	-0.5	·	·	-1	i	-4	·
Nc1nn(S(=O)(=O)c2ccccc2)cc1-c1cccc([N+](=O)[O-])c1	-1	-2	-1.6	4.1	-3	-0.6	-3	i	-8	57*
Cc1ccc(S(=O)(=O)CCc2nc3ccccc3s2)cc1C	-15	-11	-0.2	·	8	2.2	-8	·	4	-5
CCC(=O)N1CCc2cc(Br)cc(S(=O)(=O)NCCCN(C)Cc3ccccc3)c21	5	7	-1.5	1.1	-6	0.5	-1	i	-5	24
Cc1nc(N)c(C#N)c(-c2cccnc2)c1-c1ccccc1	18	13	5.0	-1.5	0	-1.7	-11	i	2	-11
O=C(CN1C(=O)CCC1=O)NCC12CC3CC(CC(C3)C1)C2	·	·	·	·	-6	1.7	0	·	6	-3
Cn1c(C(=O)Nc2ccc3c(c2)OCO3)cc2sccc21	·	·	·	·	-25	-3.7	3	·	-4	0
S=C(NCCc1ccccn1)NC1CC2CCC1C2 (stereo not given)	-6	-10	-1.4	2.6	-6	-1.1	1	i	-2	-2
CCCCN(c1ccccc1)S(=O)(=O)c1cccc(C(=O)O)c1	0	0	-0.8	-9.5	19	2.9	-7	i	-1	-2
O=c1c2cc(NC(=S)NC3CCN(Cc4ccccc4)CC3)ccc2nc2n1CCCCC2	-12	-18	-0.2	3.1	0	?	15	i	-12	38
CCc1cc(=O)oc2c3c(cc(OCC(=O)NCc4ccco4)c12)OC(C)(C)CC3	·	·	·	·	1	2.6	0	·	-20	34
Cc1cc(Cl)c2oc(C(=O)NCCC3CCCCO3)c(C)c2c1 (stereo not given)	-50	-75	-12	-2.4	9	0.8	6	i	-1	32
O=S(=O)(N1CCOCC1)n1cnc2ccccc21	·	·	·	·	1	3.5	5	·	-4	8
O=C(NCCN1C(=O)S/C(=C\c2ccc(F)cc2)C1=O)C1CCN(S(=O)(=O)c2cccs2)CC1	·	·	·	·	-2	1.7	4	·	-11	-1
CC(C)(CNC(=O)C1CCCN1C(=O)c1cccs1)N1CCOCC1 (stereo not given)	16	7	0.6	-2.2	-32	-5.3	-2	i	-14	-3
O=C(OCC(=O)c1ccc(Br)s1)c1ccc(O)cc1	-26	-24	-6.2	-0.1	·	·	-1	i	3	·
CCC(=O)Nc1ccc(C(=O)N/N=C/c2ccc([N+](=O)[O-])cc2)cc1	·	·	·	·	-12	0.7	4	·	·	-10
Cc1cccc(N2CCN(CCCNC(=O)C3CCCN(c4ncnc5c4nc4n5CCCCC4)C3)CC2C)c1 (stereo not given)	-52	-81	-27	16	14	0.8	14	i	73	27
CC(=O)c1cccc(NC(=O)Nc2ccc3c(c2)OCO3)c1	-8	-7	-1.1	0.2	-38	·	-7	i	-9	·
COc1ccc(N2CCN(C(c3cccs3)C(C)NC(=O)C(=O)N3CCCC3)CC2)cc1 (stereo not given)	1	-1	0.0	9.5	-4	-2.2	3	i	98*	0
CN(C)C(=O)COc1ccc2ccc(=O)oc2c1	·	·	·	·	8	-2.3	·	·	-17	2
CN(Cc1ccon1)C(=O)C1CCC(=O)N(CCc2ccc(Cl)cc2)C1 (stereo not given)	0	1	-1.4	-1.6	-17	-5.0	·	i	·	-3
Cc1ccc(S(=O)(=O)c2nc(S(=O)(=O)c3ccccc3)sc2N2CCN(C)CC2)cc1	-1	-20	4.2	9.7	-8	0.6	·	i	2	31
CCOC(=O)CC(NC(=O)c1cc2cc(Cl)cc(Cl)c2oc1=O)c1cccc([N+](=O)[O-])c1 (stereo not given)	·	·	·	·	?	3.1	-8	·	·	-27
C=CCN=C1NN=C(c2cc(C)n(CC=C)c2C)CS1	20	25	0.3	-0.6	-20	6.4	2	i	-7	43
CC(=O)Nc1ccccc1OCC(O)CS(=O)(=O)c1ccc(C(F)(F)F)cn1 (stereo not given)	12	21	14	-4.1	1	0.8	·	i	·	-3
Cc1ccccc1-n1nc2c(c1NC(=O)c1cc3ccccc3o1)CS(=O)(=O)C2	-2	-3	-0.1	-8.6	-4	-3.9	-2	i	-3	-2
Cc1cccc(CC(Cc2nc3ccccc3[nH]2)c2nc3ccccc3[nH]2)c1 (stereo not given)	·	·	·	·	-1	0.9	2	·	-12	25
O=C(CCC(=O)Nc1ccccc1)NNC(=O)COc1ccccc1	·	·	·	·	3	5.3	0	·	-6	-22
CCCc1[nH][nH]c(=O)c1C(c1ccc(Br)cc1)C(C#N)C#N (stereo not given)	·	·	·	·	17	-7.4	-15	·	95*	-19
CCOC(=O)CN1C(=O)C(C)(C)Oc2ccc(C(=O)Nc3ccccc3OC)cc21	·	·	·	·	4	-4.0	3	·	7	10
CCC(=O)N1CCN(C(=O)c2ccccc2)CC1	·	·	·	6.1	·	·	2	i	-6	·
CN1CCc2c(sc(NC(=O)c3ccc(S(=O)(=O)N4CCc5ccccc54)cc3)c2C(N)=O)C1	-1	3	18	2.5	5	2.8	3	i	-5	-5
COc1ccc(-n2c(=O)c3c4c(sc3n3c(=S)[nH]nc23)CCC4)cc1	-25*	-15*	-4.6*	·	7	1.4	5	i	·	-3
COc1cccc(C2=CC(c3ccc(N(C)C)cc3)n3nnnc3N2)c1 (stereo not given)	·	·	·	·	-13	-11	4	·	19	9
COc1ccc(C(=O)OCC2CC(c3ccccc3)N(C)O2)cc1 (stereo not given)	·	·	·	·	7	4.2	0	·	2	26
COc1ccccc1Nc1nn2c(=O)c3ccc(C(=O)N4CCCCC4)cc3nc2s1	-8	8	5.6	-9.8	-22	1.7	5	i	0	22
CC(=O)c1ccccc1NC(=O)COC(=O)/C(=C/c1ccccc1)n1nnnc1C	18	8	4.6	-0.5	8	1.7	-4	i	5	-10
Cc1cc2ncn(N)c2cc1C	·	·	·	·	-1	0.9	-7	·	13	-12
Cc1occc1C(=O)Nc1cccc2ccccc12	·	·	·	·	-3	-3.8	·	·	-17	-10
COc1ccc(C(C)=O)cc1CSc1nnc(-c2ccncc2)n1C	4	7	-0.3	-12	13	8.1	2	i	-1	-16

Reprinted at random: 2 records from the list.
SMILES	rRNA inh HTS	rRNA inh HTS OD600	rRNA inh HTS RFP	AF4-AF9 inh	Calb FLC	RanGTP-Impb inh	Beta cell apopt	FGF22 binding	ALR inh	T cruzi inh
Cc1cccc(CC(Cc2nc3ccccc3[nH]2)c2nc3ccccc3[nH]2)c1 (stereo not given)	·	·	·	·	-1	0.9	2	·	-12	25
CCCc1[nH][nH]c(=O)c1C(c1ccc(Br)cc1)C(C#N)C#N (stereo not given)	·	·	·	·	17	-7.4	-15	·	95*	-19

Next structures follow.
SMILES	rRNA inh HTS	rRNA inh HTS OD600	rRNA inh HTS RFP	AF4-AF9 inh	Calb FLC	RanGTP-Impb inh	Beta cell apopt	FGF22 binding	ALR inh	T cruzi inh
CS(=O)(=O)N1CCN(c2nc(-c3ccccc3)cs2)CC1	·	·	·	·	?	-3.4	2	·	36	2
CCOC(=O)CSc1nc2ccc(NC(C)=O)cc2s1	·	·	·	·	-16	-2.6	-6	·	34	-8
O=C(CSC(=S)N1CCCCC1)Nc1ncc2c(n1)CCCC2=O	6	9	-2.6	-7.5	1	4.7	-7	i	-17	0
CS(=O)(=O)N(CC(=O)N1CCC(C(N)=O)CC1)C1CCCCC1	·	·	·	·	2	-0.7	-7	·	0	2
CCC(=O)N1N=C(c2ccc(Cl)cc2)CC1c1ccco1 (stereo not given)	-28*	-22*	-0.5*	4.3	-3	3.5	4	i	·	9
CCOC(=O)c1ccccc1NC(=O)CSc1ncc(C(=O)OCC)c(N)n1	·	·	·	·	0	-2.0	4	·	·	4
COCCn1nnnc1C(c1ccc(Cl)cc1)N1CCSCC1 (stereo not given)	3	-2	-1.8	-9.3	-2	2.6	0	i	0	-5
O=C(CN1C(=O)COc2ccc(Cl)cc21)NCC1CCCO1 (stereo not given)	11	10	-3.1	-2.1	-10	1.3	-2	i	-11	-6
O=C(NCc1cccs1)c1csc2ccccc12	-23	-33	-13	13	3	4.9	-2	i	15	-23
COCCN(C(=O)CCC(=O)Nc1ccccn1)C(C(=O)NC(C)(C)C)c1ccc(OC)cc1 (stereo not given)	6	8	-1.7	2.2	1	5.4	-4	i	·	-15
COc1ccccc1-c1nc(SCC(=O)Nc2cc(C)on2)c2c(=O)n(C)c(=O)n(C)c2n1	7	11	2.4	-0.9	-2	0.3	4	i	-1	17
O=C(Nc1ncccn1)C12CC3CC(CC(C3)C1)C2	10	7	-0.6	-3.1	-1	9.6	·	i	-6	5
COc1ccc(OC)c(NC(=O)c2ccccc2N(C)S(=O)(=O)c2ccc(C)cc2)c1	-16	-11	4.0	1.1	10	?	·	i	-7	28
O=c1cc(-c2ccc(Cl)cc2)[nH][nH]1	·	·	·	·	5	-1.7	-15	·	71	-10
COc1ccc(C)cc1NC(=O)C1COc2ccccc2O1 (stereo not given)	-19	-21	4.5	-4.9	-2	1.3	-6	i	1	-1
CCOc1ccc(NC(=O)c2ccccc2OCC(=O)c2ccc(C)cc2)cc1	·	·	·	·	-1	-4.7	·	·	-2	15
CCCC(C(=O)N(C)CC(=O)Nc1ccc(N2CCOCC2)cc1)c1ccccc1 (stereo not given)	1	4	-3.5	-6.4	-8	3.2	1	i	71	-1
Cc1ccc(S(=O)(=O)NCC(=O)N2CCN(c3ccc(F)cc3)CC2)cc1	-2	2	-1.3	-3.0	6	-2.6	-8	i	11	-5
O=C(NC1CCCCC1)c1ccc(Cl)c(NC(=O)c2ccccc2F)c1	·	·	·	·	5	-0.9	2	·	-3	-1

From PubChem BioAssay

Not all compounds are listed (hit frequency here may not be typical).
